D2 potentiator – human D2 receptor positive allosteric modulation. DiscoveRx D2 beta-arrestin cells, luminescence, 90 min; 100% = 57 uM dopamine signal. P14416. actives 0.23% (n = 360,000). potentiation, % (no concentration beside the values); active = potentiation of 50% or more; inconclusive = 30% to 50%; inactive = 30% or less;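 note: compound concentration not given in the record; tested on top of an EC20 dose of dopamine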
Target sequence (P14416 whole entry, looked up): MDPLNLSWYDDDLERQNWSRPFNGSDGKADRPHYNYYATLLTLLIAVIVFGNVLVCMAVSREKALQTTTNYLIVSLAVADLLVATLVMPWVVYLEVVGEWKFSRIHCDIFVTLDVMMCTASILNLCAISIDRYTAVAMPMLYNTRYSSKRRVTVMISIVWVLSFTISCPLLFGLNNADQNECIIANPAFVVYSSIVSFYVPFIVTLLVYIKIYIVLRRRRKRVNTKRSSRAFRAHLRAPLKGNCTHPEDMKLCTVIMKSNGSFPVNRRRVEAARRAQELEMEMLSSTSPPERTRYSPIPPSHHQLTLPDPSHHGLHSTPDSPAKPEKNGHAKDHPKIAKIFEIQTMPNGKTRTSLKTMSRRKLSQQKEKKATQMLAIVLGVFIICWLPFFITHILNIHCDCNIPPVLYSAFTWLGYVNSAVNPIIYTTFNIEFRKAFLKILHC
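PathHunter beta-arrestin assay in DiscoveRx D2 cells. Compounds were added with an EC20 of dopamine (50 nM final) for 90 min at 37 deg C. Luminescence was read 1 h after detection reagent, with 57 uM dopamine as the EC100 control.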
PINK1 expr mod – modulators of PINK1 expression; PINK1 immunofluorescence, high-content cytometry, 24 h; Potency, µM (highest dose often 76.6 µM), inactives show at the highest dose activation (PINK1 increase), actives largely listed as activators; actives 0.2% (n = 410,000); active = well fitted activation curve with a large enough effect; inconclusive = small, poorly fitted or top-dose-only effect; inactive = flat fitted curve, though single readings scatter; cell line not stated here;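 note: potency is the fitted concentration of half-maximal effect; % of control where 0% means no effect; nearly all actives have a fitted effect of over 65% in size; a mitochondrial uncoupler was the plate control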
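Decision-based qHTS: stable cells, 24 h exposure to five compound concentrations, CCCP as control. Fixed cells stained for PINK1 plus nuclear, mitochondrial and cell markers, cytometer read.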
TRPV1 PAM – enhances activation of the human vanilloid receptor TRPV1 | Q8NER1 | TRPV1-expressing cells, Fluo-8 calcium influx, capsaicin EC20 potentiation; host cell line not named in the record; control for the full effect not named in the record | potentiation, % at 8.33 µM | actives 0.02% (n = 320,000) | AID 540277; active means potentiation above 80%; inconclusive means 30% to 80%; inactive means below 30%; note: 0% is about no effect
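TRPV1-expressing cells were cultured overnight at 35.5C and loaded with Fluo-8 calcium dye for 40 to 90 min at room temperature. After a 10 s baseline, compound was added and calcium influx was read kinetically for 3 min (ex 480/em 520 nm).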
CtBP-E1A blk – blocks the CtBP interaction with E1A. AlphaScreen GST-E1A/His-CtBP binding, 1536-well; stronger effect = lower value; control for the full effect not named in the record. actives 0.49% (n = 340,000). activity change, % (concentration not given with the values). AID 651724; in the data active means activity change below about -65%; inconclusive means about -30% to -65%; inactive means above about -30%; note: % is set by controls: 0 for no effect and ±100 for the full control effect
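In 5 uL wells, 23 nL compound meets equimolar GST-E1A and His-CtBP (5X stock 125 nM each) for 2 h, 37 °C. Beads (5X, 50 ug/mL) then 1 h, 37 °C, dark.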
D2 agonist – agonists of human D2 dopamine receptor (beta-arrestin); DiscoveRx PathHunter D2 beta-arrestin, luminescence, 90 min; 100% = 57 uM dopamine signal; P14416; actives 0.084% (n = 360,000); activation, % (no concentration beside the values); in the data active = activation above about 40%; inconclusive = about 15% to 40%; inactive = below about 15%; note: compound concentration not given in the record; the text of the record calls up to 30% inactive
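Agonist mode: compounds alone added to overnight-plated D2 PathHunter cells for 90 min at 37 C, with 57 uM final dopamine (EC100) defining full response. Beta-arrestin recruitment detected by chemiluminescent reagent, read after 1 h at ambient temperature.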
Sfp inh – blocks B. subtilis Sfp PPTase activity; Q9F4F7; Biochemical Sfp PPTase activity, qHTS; Potency, µM, inactives show max response, negative = inhibition, usual class: inhibitors; actives 3.5% (n = 310,000); active = well fitted inhibition curve with a large enough effect; inconclusive = small, poorly fitted or top-dose-only effect, or another doubt; inactive = no such curve, though single readings can be large or run the other way;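 note: the enzyme is Sfp with the accession as filed and its product quenches rhodamine fluorescence; potency is the fitted concentration of half-maximal effect; 0% = enzyme reaction without inhibitor and -100% = no enzyme wells; top concentration of the series not given in the record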
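Fluorescence-quenching assay with 15 nM Sfp, 5 uM rhodamine-CoA and 12.5 uM BHQ-2-labelled ybbR peptide in pH 7.6 Hepes/MgCl2 buffer. Enzyme was pre-incubated with compound for 15 min at room temperature. Rate was taken from the 30-min fluorescence change (525/598 nm).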
Six1-Eya2 inh – inhibitors of human Six1/Eya2 interaction. Q15475+O00167. AlphaScreen GST-Six1/His-Eya2 binding, biochemical; stronger effect = lower value; control for the full effect not named in the record. activity change, % (no concentration beside the values). actives 0.56% (n = 360,000). AID 651725; in the data active = activity change below about -65%; inconclusive = about -30% to -65%; inactive = above about -30%; note: % is set by controls: 0 for no effect and ±100 for the full control effect; compound concentration not given in the record
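Homogeneous AlphaScreen proximity assay pairing GST-Six1 with His-tagged Eya2 (added as 5X mix: 250 nM and 500 nM) in 50 mM Tris pH 8.0, 300 mM NaCl, 1 mM TCEP. Glutathione donor and nickel acceptor beads; 1 h, 37 °C, dark.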
* = called active by the depositor; ? = inconclusive; . = not tested or not shown; & = joins results of further samples; [ ] = dose if it differs, or a comment.

Compound	D2 potentiator	PINK1 expr mod	TRPV1 PAM	CtBP-E1A blk	D2 agonist	Sfp inh	Six1-Eya2 inh
O=C(Nc1ccccc1Cl)N1CCN(c2ccc3nncn3n2)CC1	-3	-0.4%	6	0	4.7	15%	1
CC1=NN(c2nc(-c3ccc(Cl)cc3)cs2)C(=O)C1	-1	0.4%	17	12	-2.4	5%	5
O=[N+]([O-])c1c(NCc2ccco2)ccc2nonc12	-4	-0.7%	28	?	-1.2	0%	-1
Cc1cc(C)nc(Sc2ncnc3sc4c(c23)CCC4)n1	-12	-4.5%	-4	-2	-5.0	-22%	0
O=C(O)/C(=C/c1ccco1)NC(=O)c1ccccc1	-12	-2.0%	-1	1	-0.6	-19%	3
COCCCNc1ccn2nc(-c3ccc(OCCN4CCOCC4)cc3)cc2n1	-3	5.8%	.	-12	3.9	.	-8
O=C(CN(Cc1ccco1)C(=O)c1ccc(Cl)cc1)Nc1ccc(Cl)c(Cl)c1	-22	4.2%	1	-5	-2.7	17%	1
O=C(NCc1cccc(C(F)(F)F)c1)C1CC2Cn3c(nc4ccccc43)C2N1Cc1ccccc1 (stereo not given)	-17	-0.2%	.	7	-2.4	.	-2
COc1cc(CNc2ccc3[nH]c(=O)[nH]c3c2)ccc1OCc1ccccc1F	7	9.2%&1.7%	-10	-27	10	-9%	-26
CCNC(=O)CN1C(=O)NC(CCc2ccccc2)C1=O (stereo not given)	3	2.8%	6	2	-2.1	21%	10
COc1ccc(CCNC(=S)NC(=O)c2c(-c3ccccc3Cl)noc2C)cc1OC	9	2.2%	7	.	7.6	15%	3
CSc1ccc(/C=N/n2c(Cc3ccc(Br)cc3)n[nH]c2=S)cc1	-27	10%	0	?	2.0	18%	-24
CCOC(=O)C1=C(C)N(C)C(=O)NC1c1c(C)nn(-c2ccc(C)cc2)c1Cl (stereo not given)	13	2.3%	-6	0	-4.6	-9%	-7
O=C(O)C(Cc1ccc(O)c([N+](=O)[O-])c1)N1C(=O)c2ccccc2C1=O (stereo not given)	-15	1.5%	.	3	-3.4	.	5
CCOc1ccc(/C=C\c2nc(O)c([N+](=O)[O-])c(=O)[nH]2)cc1OCC	-1	-0.5%	4	0	-2.0	-5%	-1
COc1ccc(-n2nc([N+](=O)[O-])c(=NCCC3=CCCCC3)n2O)cc1	74*	0.3%	-13	?	51*	-6%	-70*
Cn1c(SCC(=O)NC2CC2)nnc1-c1cccc(NC(=O)c2ccccc2F)c1	-5	-0.7%	4	-3	-1.4	3%	-8
O=C(CSCc1c(F)cccc1Cl)NCc1ccco1	-1	-4.8%[38.3 µM]	5	7	-0.5	2%	-8
CCc1ccccc1NC(=O)CSC1=C(C#N)C(c2ccc3c(c2)OCO3)C2=C(CCCC2=O)N1 (stereo not given)	-3	3.4%[38.3 µM]	?	-14	-0.1	?	-7
Cc1cc(C)c2cc(C#N)c(N3CCCC3)nc2c1	-5	0.3%	9	50	-1.4	45µM*	75
CCOC(=O)c1ccc(NC(=O)c2ccc(CN3CCOCC3)cc2)cc1	-16	-1.4%	-6	-9	-1.1	-4%	-6
CN1CCN(c2ncc3c(n2)CC(c2ccccc2F)CC3=O)CC1 (stereo not given)	-13	0.3%	19	4	-5.2	1%	2
Cc1cccc(OP(=O)(Nc2c(C)n(C)n(-c3ccccc3)c2=O)Oc2cccc(C)c2)c1	-3	-0.9%	7	2	-0.8	2%	2
O=C(CCC(=O)N1CCOc2ccccc21)NCCCc1ccccc1	-8	-0.3%	6	5	-2.0	5%	5

Individual results from above.
Under D2 agonist, COc1ccc(-n2nc([N+](=O)[O-])c(=NCCC3=CCCCC3)n2O)cc1 shows 51*
Under D2 potentiator, CCc1ccccc1NC(=O)CSC1=C(C#N)C(c2ccc3c(c2)OCO3)C2=C(CCCC2=O)N1 (stereo not given) shows -3
Under Six1-Eya2 inh, COCCCNc1ccn2nc(-c3ccc(OCCN4CCOCC4)cc3)cc2n1 shows -8
Under Six1-Eya2 inh, COc1cc(CNc2ccc3[nH]c(=O)[nH]c3c2)ccc1OCc1ccccc1F shows -26
Under CtBP-E1A blk, O=C(CN(Cc1ccco1)C(=O)c1ccc(Cl)cc1)Nc1ccc(Cl)c(Cl)c1 shows -5

(continued)
Compound	D2 potentiator	PINK1 expr mod	TRPV1 PAM	CtBP-E1A blk	D2 agonist	Sfp inh	Six1-Eya2 inh
COc1ccccc1C(=O)N1CCN(c2ccccn2)CC1	0	-1.2%[38.3 µM]	1	10	1.0	23%	5
CC(=O)N1c2ccc(S(=O)(=O)NCC3CCC(C(=O)Nc4cc(C)ccn4)CC3)cc2CC1C (stereo not given)	4	1.4%	15	-3	-3.3	4%	-1
O=C(C[n+]1ccccc1)Nc1ccccc1[N+](=O)[O-]	-3	1.0%	0	5	0.6	-4%	0
Cc1ccc(NC(=O)CN2C(=O)c3ccccc3C2=O)c(C)c1	-3	-0.2%	12	0	2.5	14%	3
COCCCn1c(Cc2csc(Nc3ccc(F)cc3)n2)nnc1SCC(N)=O	17	2.6%	-3	4	-3.4	50µM*	-7
CSc1ccccc1NC(=O)CSc1cccc[n+]1[O-]	-27	-1.3%	.	-12	-2.2	.	11
CC(C)Cc1nnc(NC(=O)CCNC(=O)c2ccccc2Cl)s1	-3	-0.5%	6	0	-5.3	.	1
O=C(c1ccccc1F)N1CCN=C1c1ccccc1	-4	1.0%	-2	2	-3.8	17%	-1
Cc1cc(=O)c2c([nH]1)c(C)cc1[nH]c(C)c(C)c12	-1	1.6%	-6	-11	6.8	.	-10
Cn1c(=N)n(CC(O)c2ccccc2)c2ccccc21 (stereo not given)	-6	1.3%	6	7	-2.8	-1%	-3
COc1cccc(CN(C)C(=O)c2cc(S(=O)(=O)NC3CCCCC3)ccc2C)c1	4	1.9%	.	1	-4.5	.	-1
CC1CC(C)CN(C(=O)CN2C(=O)NC(c3ccccc3)(c3ccccc3)C2=O)C1 (stereo not given)	3	-1.7%	-6	.	-1.7	.	-3

Part of the list above in order of heavy-atom count, low to high.
Compound	D2 potentiator	PINK1 expr mod	TRPV1 PAM	CtBP-E1A blk	D2 agonist	Sfp inh	Six1-Eya2 inh
CSc1ccccc1NC(=O)CSc1cccc[n+]1[O-]	-27	-1.3%	.	-12	-2.2	.	11
COc1ccccc1C(=O)N1CCN(c2ccccn2)CC1	0	-1.2%[38.3 µM]	1	10	1.0	23%	5
COCCCn1c(Cc2csc(Nc3ccc(F)cc3)n2)nnc1SCC(N)=O	17	2.6%	-3	4	-3.4	50µM*	-7
COc1cccc(CN(C)C(=O)c2cc(S(=O)(=O)NC3CCCCC3)ccc2C)c1	4	1.9%	.	1	-4.5	.	-1

(more compounds)
Compound	D2 potentiator	PINK1 expr mod	TRPV1 PAM	CtBP-E1A blk	D2 agonist	Sfp inh	Six1-Eya2 inh
CC1=C(C(=O)N(C(C)C)C(C)C)CC(CC(=O)NCc2cccc3ccccc23)C(=O)N1CCCN1CCCC1=O (stereo not given)	-9	2.2%	.	-20	-4.4	.	7
COc1cc(O)c(C(CC(=O)N2CCCC2)c2cc(OC)c(OC)c(OC)c2)c(OC)c1 (stereo not given)	-7	-0.8%	16	3	-0.5	18%&5%	0
O=S(=O)(CCOc1ccccc1)c1nc2ccccc2[nH]1	-5	-1.8%	5	4	-0.6	14%	7
CC1CCN(C(=O)c2[nH]cnc2C(=O)N[C@@H](Cc2ccccc2)C(=O)OC(C)(C)C)CC1	0	0.2%	-23	-19	-4.6	12%	4
COc1cccc(CN2CCC(C)(Oc3cccc(Cl)c3)C2)c1OC (stereo not given)	-21	8.1%	.	-1	4.9	.	5
COc1cccc(NC(=O)CSc2nc3ccccc3c(=O)n2C)c1	5	0.6%	7	.	-0.4	9%	-4
COc1ccc(NC(C)=O)cc1NC(C)C(=O)Nc1ccc(S(=O)(=O)N2CCCCC2)cc1 (stereo not given)	6	-1.6%	-1	-6	-0.3	.	-6
O=C(COC(=O)c1ccc2ccccc2n1)Nc1ncc(C(F)(F)F)cc1Cl	-20	3.1%	2	-1	-3.9	4%	-3
CNc1nc(Oc2ccccc2C(=O)OC)nc(SC)n1	-3	?	16	5	-2.5	16%	3
COC(=O)CSc1nnc(-c2sc3ccccc3c2Cl)o1	-7	2.5%	-8	-3	-1.7	-12%	7
O=C(Nc1ccccc1C(=O)NCCN1CCOCC1)c1ccc(Cl)cc1Cl	-10	0.4%	-6	.	1.3	19%	-2
CC(C)c1ccc(/C=C2\SC(=O)N(CC(=O)NC3C=CS(=O)(=O)C3)C2=O)cc1 (stereo not given)	-13	-1.6%	0	.	6.1	-21%	4
C=CCn1c(N)c(C(=O)NCc2cccnc2)sc1=S	5	1.9%	26	0	0.3	-20%	-2
Clc1ccc(C=NN2CCCCCC2)c(Cl)c1	-5	17%	.	-3	-1.8	.	-10
COc1ccc(CN(C(=O)/C=C/c2ccco2)C2CCS(=O)(=O)C2)cc1OC (stereo not given)	-2	-1.6%	-15	0	-1.3	50µM*	-4
COCCn1c(=S)[nH]c2cc(C(=O)NC3CCCCC3C)ccc2c1=O (stereo not given)	-2	1.4%	.	1	0.8	.	-1
O=C(COC(=O)c1cccs1)Nc1cccc(S(=O)(=O)N2CCCCC2)c1	1	0.9%	.	-2	-0.2	.	-16
Cc1cccc(C(=O)N2CCCC(N3CCN(c4ccc(F)cc4)CC3)C2)n1 (stereo not given)	-17	0.0%	10	-9	2.1	16%	-1
CCn1cc([N+](=O)[O-])c(C(=O)NCc2ccc3c(c2)OCO3)n1	-4	1.0%	-6	6	5.3	4%	0
COCCCNC(=O)c1ccc(-n2nc(C(F)(F)F)cc2-c2cccs2)cc1	5	-3.0%	12	-2	-1.7	-3%	4
Cc1ccc(C(=O)COC(=O)CCS(=O)(=O)c2ccccc2)cc1[N+](=O)[O-]	-32	2.8%	10	.	-11	.	-1
O=C(NS(=O)(=O)c1ccc2ccc(S(=O)(=O)NCCSc3ccccc3)cc2c1)c1cccc2ccccc12	.	0.3%	.	5	.	.	-3
Cc1ccccc1C1C(C#N)=C(N)N(N(C)C)C2=C1C(=O)CC(C)(C)C2 (stereo not given)	-7	9.2%	-29	2	1.4	4%	-3
COc1ccc(C(=O)NC(CC(C)C)C(=O)O)cc1OC (stereo not given)	4	-1.1%	?	1	-2.2	18%	-1
O=C(NC(=S)Nc1cccc(O)c1)C1CCCCC1	0	12%	.	-9	-3.0	.	1

Outcome played no part in choosing rows; about 3.7% have a hit in one of these screens.
